# miR-21 FLuc – raises the signal of a miR-21 reporter; HeLa miR-21 FLuc reporter, luciferase, 48 h; Potency, µM (top dose mostly 38.3 µM), for the others: at the highest dose reporter change, positive = more light; 340,000 tested, under 10 active; AID 2288; active = well fitted rising curve with a large enough effect; inconclusive = small, poorly fitted or top-dose-only effect; inactive = no such curve, though single readings can be large or run the other way;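 further: % of control where 0% means no effect; miR-21 action dims this reporter so a rising signal means less miR-21 action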
#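 HeLa cells endogenously expressing miR-21, stably carrying CMV-driven firefly luciferase with a downstream miR-21 binding site, 2000 cells/well. Titrations up to approximately 40 uM, 48 hours; luciferase luminescence read.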
# GLA inh pH 4.5 – inhibitors of human alpha-galactosidase A at pH 4.5; purified enzyme, 4-MU-alpha-Gal fluorescence, pH 4.5; activity change, negative = inhibition, % at 105 µM; 230,000 tested, under 10 active; AID 1467; inconclusive = small, poorly fitted or top-dose-only inhibition, or a rising curve; inactive = flat fitted curve, though single readings scatter; no compound was filed as active;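 further: 0% = full activity with enzyme and -100% = basal without enzyme; dose as in the result columns while the protocol names 77 µM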
# Rango complex inh – Rango-importin beta binding inhibition | Q14974 | Rango CFP/YFP FRET sensor + importin beta, 45 min | Potency, µM (doses to about 92.2 µM), for the others: at the top dose inhibition of complex formation | actives 0.031% (n = 340,000) | AID 540263; active = rising FRET ratio curve, often small or poorly fitted; inconclusive = mostly compound fluorescence or quenching in the first reads; inactive = flat curves in all reads;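 further: potency means the concentration at half of the fitted maximal effect; 0% = DMSO wells and 100% = buffer wells lacking importin beta; nearly all actives have a fitted effect of over 15% in size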
# Target sequence (Q14974 whole entry, looked up): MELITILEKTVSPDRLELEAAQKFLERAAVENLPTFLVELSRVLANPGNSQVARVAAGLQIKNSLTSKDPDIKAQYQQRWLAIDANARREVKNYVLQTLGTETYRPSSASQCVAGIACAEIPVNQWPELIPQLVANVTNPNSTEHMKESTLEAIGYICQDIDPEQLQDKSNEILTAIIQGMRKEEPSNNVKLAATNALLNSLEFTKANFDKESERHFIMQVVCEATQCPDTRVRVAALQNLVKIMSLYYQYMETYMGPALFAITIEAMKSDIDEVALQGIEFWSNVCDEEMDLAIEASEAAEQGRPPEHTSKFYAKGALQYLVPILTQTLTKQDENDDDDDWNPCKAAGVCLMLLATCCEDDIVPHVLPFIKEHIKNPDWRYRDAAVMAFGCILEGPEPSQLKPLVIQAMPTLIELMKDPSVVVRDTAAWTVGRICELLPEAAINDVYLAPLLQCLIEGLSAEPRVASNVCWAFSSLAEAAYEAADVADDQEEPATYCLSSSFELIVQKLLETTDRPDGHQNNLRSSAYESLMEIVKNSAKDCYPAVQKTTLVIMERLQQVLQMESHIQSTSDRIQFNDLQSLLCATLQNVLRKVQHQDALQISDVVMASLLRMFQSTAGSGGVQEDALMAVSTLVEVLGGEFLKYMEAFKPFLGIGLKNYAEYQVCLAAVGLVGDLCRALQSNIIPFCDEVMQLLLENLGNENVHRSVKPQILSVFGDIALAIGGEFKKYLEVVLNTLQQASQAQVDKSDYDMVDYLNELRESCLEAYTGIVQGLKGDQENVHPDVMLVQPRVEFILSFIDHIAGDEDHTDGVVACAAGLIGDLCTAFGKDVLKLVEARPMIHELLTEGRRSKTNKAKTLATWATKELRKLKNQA
#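 Inhibition scored from the CFP 486 nm/YFP 530 nm FRET ratio 45 min after adding 0.125 microM importin beta to 50 nM Rango biosensor preincubated 5 min with compound (room temperature, PBS with DTT, Tween-20, BSA). No-importin wells as positive control.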
# Rango release inh – inhibitors of RanGTP-induced Rango-importin beta complex dissociation. O95149+P62826. Biochemical FRET Rango-importin beta, RanGTP-induced dissociation. Potency, µM (doses to about 46.1 µM), without a hit: at the highest dose activity change, negative = inhibition. actives 0.071% (n = 340,000). AID 540253; active means falling FRET ratio curve, often poorly fitted, with flat reads before Ran was added; inconclusive means other falling curves, or compound fluorescence or quenching; inactive means flat or rising ratio curve;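 further: potency means the concentration at half of the fitted maximal effect; % of control where 0% means no effect; nearly all actives have a fitted effect of over 45% in size; -100% = wells without RanGTP and RCC1; the record marks most hits as doubtful in a second field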
#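 Rango FRET biosensor (snurportin-1 IBB flanked by N-terminal EYFP and C-terminal CFP10) at 0.1 uM, with 0.25 uM importin beta in PBS, 1mM DTT, 0.02% Tween-20, 0.1% BSA. 0.6 uM Ran, 2mM GTP and 0.2 uM RCC1 were then added for 45 min at room temperature. Inhibition read as loss of FRET rise.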
# Active calls of the source: *; ? = inconclusive; . = not tested or not shown. These rows are one share of the data. The share of hits here may be higher or lower than overall.
item	canonical_smiles	miR-21 FLuc	GLA inh pH 4.5	Rango complex inh	Rango release inh
1	O=C(COC(=O)c1nc(Cl)ccc1Cl)Nc1ccccc1OC(F)F	4%	4	3.2%	14%
2	CN(C)c1ccc(C2NCCS2)cc1 (stereo unspecified)	-7%	-1	3.9%	-13%
3	CCS(=O)(=O)c1ccc(O)c(NC(=O)c2cc(OC)c(OC)c(OC)c2)c1	-4%	2	-4.1%	-4%
4	COc1cc(NC(=S)Nc2ccccn2)cc(OC)c1OC	-1%	-2	-1.6%	-5%
5	COc1ccc(C(c2c(C)n(C)n(-c3ccccc3)c2=O)c2c(C)n(C)n(-c3ccccc3)c2=O)cc1OC	2%	.	-4.4%	8%
6	O=[N+]([O-])c1cc2c(cc1CN1CCN(CCOCCO)CC1)OCO2	2%	.	?	21%
7	CC1Cc2ccccc2N1C(=O)Cn1cc([N+](=O)[O-])cn1 (stereo unspecified)	-2%	1	7.7%	-7%
8	COc1ccc(-c2nc(CSCC(=O)NC3CCCc4ccccc43)c(C)o2)cc1OC (stereo unspecified)	7%	-3	4.0%	7%
9	CC(=O)c1sc(-c2ccc(Cl)cc2)nc1C	-40%	0	-1.0%	9%
10	Clc1ccc(-c2cnc3n2CCCCC3)cc1	-5%	3	0.0%	-6%
11	S=c1[nH]nc(Cc2sc(-c3ccccc3)nc2-c2ccccc2)o1	-18%	-1	-2.4%	-10%
12	O=C(c1ccccc1)c1ccc(OCC(O)CN2CCCCC2)cc1 (stereo unspecified)	-8%	-3	2.0%	0%
13	FC(F)(F)c1ccccc1N/N=C/c1cccnc1	-20%	.	-0.8%	-5%
14	CCCN1CCN(C(=O)Cn2c(=O)oc3cc(S(=O)(=O)NCc4ccccc4)ccc32)CC1	-6%	0	2.3%	10%
15	Cc1ccc(C(=O)CSc2nc(O)cc(=O)[nH]2)cc1C	-11%	.	0.2%	9%
16	CCn1c(COc2ccc(OC)cc2)nnc1SCc1nc2ccccc2c(=O)[nH]1	-1%	7	.	.
17	CC(NC(=O)c1ccccc1Cl)C(=O)O (stereo unspecified)	-5%	1	0.3%	1%
18	O=C(COC(=O)CN1C(=O)C2CCCCC2C1=O)NCc1ccc(Cl)cc1Cl (stereo unspecified)	.	.	5.1%	-6%
19	O=c1oc(-c2ccccc2NS(=O)(=O)c2ccc(Cl)cc2)nc2ccccc12	?	-5	?	-20%
20	CCOc1cccc(C(=O)NC(=S)Nc2ccc(Cl)cc2C(=O)O)c1	16%	?	0.5%	-4%
21	CC1(C)CC(=O)C2=C(C1)NC(=O)NC2c1ccc([N+](=O)[O-])cc1 (stereo unspecified)	2%	.	-0.4%	-1%
22	CCc1ccc(N(C(=O)c2csnn2)C(C(=O)NCc2ccccc2)c2ccco2)cc1 (stereo unspecified)	-4%	-8	0.1%	0%
23	O=C(c1ccccc1Cl)N1CCC(c2nc3c(nnn3Cc3ccco3)c(=O)[nH]2)CC1	1%	-8	4.5%	-7%
24	CCn1c2ccccc2c2nnc(SCC(=O)OCN3C(=O)c4ccccc4C3=O)nc21	-4%	4	-0.1%	6%
25	COc1ccc(C(=O)Nn2cnc3ccccc3c2=O)c(OC)c1	-39%	-17	-1.2%	-19%
26	CN(C)S(=O)(=O)Nc1ccccn1	0%	1	3.8%	16%
27	CCOc1cnn(Cc2ccccc2)c(=O)c1SCc1ccccc1	-11%	-4	0.0%	-1%
28	C=C(C)CSc1nnc(-c2cccc(Cl)c2)n1N	-38%	8	0.5%	5%
29	CC(=O)c1cccc(NC(=O)Nc2ccc3c(c2)CCC3)c1	-32%	.	0.4%	9%
30	COc1ccc(N(C(=O)CCl)C(C(=O)NCCc2ccccc2)c2cccs2)cc1 (stereo unspecified)	?	1	-0.1%	-8%
31	COc1ccc(N(C(=O)Cn2nnc3ccccc32)C(C(=O)NCc2ccco2)c2cccnc2)cc1 (stereo unspecified)	-3%	-5	1.6%	-11%
32	COc1ccc(/C=N/Nc2cc(=O)n(C)c(=O)n2C)cc1OC	-3%	-10	-0.1%	8%
33	Cc1nc(NC(=O)C2CC2)sc1C(=O)Nc1ccc(Br)cc1	10%	.	0.4%	-3%
34	COc1ccc(C2C(C(=O)c3ccco3)=C(O)C(=O)N2c2nnc(C)s2)cc1 (stereo unspecified)	-19%	8	?	?
35	Cc1cc(=O)oc2cc(OC(C)C(=O)NC3(C#N)CCCCC3)ccc12 (stereo unspecified)	.	.	5.4%	-6%
36	O=C(C1=COCCO1)N1CCN(S(=O)(=O)c2cccc(F)c2)CC1	.	.	-1.5%	10%
37	C=CC[n+]1c(-c2ccc(C)cc2)csc1NNC(=O)Nc1ccccc1	23%	-21	-0.2%	1%
38	CCCCN(C(=O)CSCC(=O)Nc1cccc(C)c1)c1c(N)n(CCCC)c(=O)[nH]c1=O	.	.	1.4%	0%
39	NC(=O)CSC1=Nc2ccccc2C2=NC(CCC(=O)NCc3ccc(F)cc3)C(=O)N12 (stereo unspecified)	-1%	13	-0.1%	-7%
40	CCC(C)(C)n1nnnc1C(c1cccc(C#N)c1)N1CCN(c2cc(C)ccc2C)CC1 (stereo unspecified)	1%	-3	4.8%	2%
41	COCCNC(=S)N/N=C(\C)c1ccc(OC)cc1	-8%	-4	-1.1%	4%
42	O=C(NCC1CCN(C(=O)c2ccc([N+](=O)[O-])cc2)CC1)C(=O)Nc1ccccc1	-16%	-18	2.6%	1%
43	O=C1CSC(c2ccc([N+](=O)[O-])cc2)N1c1ccccc1 (stereo unspecified)	1%	.	-1.6%	4%
44	CC(=O)Nc1ccc(S(=O)(=O)NNC(=S)NCC2CCCO2)cc1 (stereo unspecified)	0%	.	?	8%
45	CN(C)c1ccc(C2OC(=O)C(C)(C)C(=O)C2(C)C)cc1 (stereo unspecified)	1%	2	-0.6%	0%
46	O=C1CCCCN1CCC(=O)N1CCCC(Nc2ccc(F)c(F)c2)C1 (stereo unspecified)	-1%	.	-1.4%	-1%
47	O=C(NCC1CCCO1)C(=O)N/N=C/c1ccc(OCc2ccccc2Cl)cc1 (stereo unspecified)	.	.	1.4%	39%
48	CC(C)OC(=O)CC1C(=O)NCCN1C(=S)NC(=O)c1ccccc1 (stereo unspecified)	-6%	5	0.7%	-5%
49	N#Cc1c(C(F)(F)F)cc(-c2ccccc2)nc1SCCN1CCOCC1	1%	-29	6.8%	-10%
50	CSCCC(NC(=O)C12CC3CC(CC(C3)C1)C2)C(=O)OCC(=O)c1ccc(Cl)cc1 (stereo unspecified)	-6%	1	4.4%	-15%

# From compound 36 up to 47, as listed above:
item	canonical_smiles	miR-21 FLuc	GLA inh pH 4.5	Rango complex inh	Rango release inh
36	O=C(C1=COCCO1)N1CCN(S(=O)(=O)c2cccc(F)c2)CC1	.	.	-1.5%	10%
37	C=CC[n+]1c(-c2ccc(C)cc2)csc1NNC(=O)Nc1ccccc1	23%	-21	-0.2%	1%
38	CCCCN(C(=O)CSCC(=O)Nc1cccc(C)c1)c1c(N)n(CCCC)c(=O)[nH]c1=O	.	.	1.4%	0%
39	NC(=O)CSC1=Nc2ccccc2C2=NC(CCC(=O)NCc3ccc(F)cc3)C(=O)N12 (stereo unspecified)	-1%	13	-0.1%	-7%
40	CCC(C)(C)n1nnnc1C(c1cccc(C#N)c1)N1CCN(c2cc(C)ccc2C)CC1 (stereo unspecified)	1%	-3	4.8%	2%
41	COCCNC(=S)N/N=C(\C)c1ccc(OC)cc1	-8%	-4	-1.1%	4%
42	O=C(NCC1CCN(C(=O)c2ccc([N+](=O)[O-])cc2)CC1)C(=O)Nc1ccccc1	-16%	-18	2.6%	1%
43	O=C1CSC(c2ccc([N+](=O)[O-])cc2)N1c1ccccc1 (stereo unspecified)	1%	.	-1.6%	4%
44	CC(=O)Nc1ccc(S(=O)(=O)NNC(=S)NCC2CCCO2)cc1 (stereo unspecified)	0%	.	?	8%
45	CN(C)c1ccc(C2OC(=O)C(C)(C)C(=O)C2(C)C)cc1 (stereo unspecified)	1%	2	-0.6%	0%
46	O=C1CCCCN1CCC(=O)N1CCCC(Nc2ccc(F)c(F)c2)C1 (stereo unspecified)	-1%	.	-1.4%	-1%
47	O=C(NCC1CCCO1)C(=O)N/N=C/c1ccc(OCc2ccccc2Cl)cc1 (stereo unspecified)	.	.	1.4%	39%

# Continued.
item	canonical_smiles	miR-21 FLuc	GLA inh pH 4.5	Rango complex inh	Rango release inh
51	O=C(NCCCN1CCN(c2ccccc2F)CC1)C1CCN(S(=O)(=O)c2cccs2)CC1	18%	-9	0.7%	7%
52	CC(C)c1cc(Br)ccc1OCCN1C(=O)NC(C)(C)C1=O	-2%	-14	1.2%	-7%
53	Cc1ccc(NC(=O)c2sc(Cl)nc2-c2ccccc2)cc1C	0%	-24	3.6%	0%
54	COc1cccc(C(=O)NCCS(=O)(=O)NC2CCCC2)c1	.	.	-2.4%	-5%
55	Cc1ccc2nc(NC(=O)CN(C)S(=O)(=O)c3ccc(Br)s3)sc2c1	15%	-2	1.6%	13%
56	O=C(CN1c2cccc3cccc(c23)S1(=O)=O)N1CCN(c2ccccc2)CC1	.	.	-5.7%	-1%
57	CC1N(C)c2cc(NC(=O)c3ccco3)c(P(=O)(Nc3ccc([N+](=O)[O-])cc3)N3CCOCC3)cc2C1(C)C (stereo unspecified)	21%	1	-1.6%	-14%
58	Cc1nn(-c2ccccc2)c2sc(C(=O)NCCN3CCOCC3)cc12	-9%	-1	-4.1%	24%
59	COc1ccc(NC(=O)COC(=O)c2ccco2)c([N+](=O)[O-])c1	2%	-5	-0.9%	-5%
60	O=C(COC(=O)/C=C/c1cccc(Br)c1)NC1CCCCC1	.	.	0.1%	-25%
61	O=C(NNC(=O)c1cc2cc(Br)ccc2oc1=O)c1ccc(O)cc1	-2%	-6	-1.4%	-25%
62	CCN(C(=O)COC(=O)c1c(C)nn(-c2ccccc2)c1Cl)c1c(N)n(Cc2ccccc2)c(=O)[nH]c1=O	.	.	-0.2%	1%
63	O=C(NCCCc1ccccc1)c1ccc(-n2cncn2)c([N+](=O)[O-])c1	.	.	-0.1%	10%
64	COc1ccccc1NC(=O)c1nn(C)c(C(=O)Nc2ccccc2OC)c1[N+](=O)[O-]	0%	.	-3.7%	-13%
65	Cc1ccc(NC(=O)CN2C(=O)NC(Cc3ccccc3)C2=O)c(Br)c1 (stereo unspecified)	1%	2	-0.4%	4%
66	CCSc1ccccc1C(=O)NCc1ccc2c(c1)OCO2	-1%	-7	0.2%	7%
67	CC(=O)NC(CC(=O)Nc1ccc2c(c1)OCCO2)c1ccccc1 (stereo unspecified)	-37%	.	5.2%	7%
68	CCC(=O)NC(C)c1cc(Cl)c2ccccc2c1O (stereo unspecified)	.	.	-2.1%	9%
69	Cc1ccc2nc(-c3ccccc3N)[nH]c2c1	3%	21	-4.5%	1%
70	CCn1c(=O)c(C)nn2c3ccccc3nc12	1%	-1	-0.8%	1%
71	CNC(=O)CN(c1ccc(C(C)C)cc1)S(C)(=O)=O	-1%	-31	0.8%	-2%
72	CSc1ncccc1C(=O)OCC(=O)c1cc2ccccc2o1	-10%	-1	-1.3%	-3%
73	O=C(N/N=C/c1c[nH]c2ccccc12)c1ccc(Br)cc1	-27%	.	4.8%	5%
74	Cc1cc(NC(=O)COC(=O)c2c(C)noc2C)ccc1Br	-6%	-2	3.8%	1%
75	C=CCN1C(=Nc2cccnc2)SCC1(O)c1ccc(C)cc1 (stereo unspecified)	-1%	5	.	.
76	COc1ccc2nc(SCC(=O)NC(C)(C)C)[nH]c2c1	-21%	-5	2.2%	-15%
77	CCCS(=O)(=O)N1CCN(CC2CC3C=CC2C3)CC1 (stereo unspecified)	-1%	-13	-0.4%	-9%
78	O=C(CCCn1cnc([N+](=O)[O-])n1)Nc1cccc(O)c1	2%	3	3.4%	-12%
79	Cc1ccc(C2C(C#N)=C3N=C(N)c4ccccc4N3C3=C2C(=O)CCC3)cc1 (stereo unspecified)	-19%	-6	?	-14%
80	O=C(CN1CCC(NC(=O)c2ccccc2F)CC1)Nc1ccc2c(c1)OCCO2	3%	-22	-1.1%	-9%

# Source: PubChem (National Center for Advancing Translational Sciences (NCATS))
